Screening results from PubChem.
ClpP mod: qHTS Assay for Activators of ClpP. purified B. subtilis ClpP, FRET peptide cleavage, 20 min. 340,000 tested, 1.9% active. Potency, µM (highest dose often 57.5 µM), inactives show at the top dose activity change, negative = active. ATP-dependent Clp protease proteolytic subunit (Bacillus subtilis (strain 168)), P80244; active = well fitted falling curve with a large enough effect; inconclusive = small, poorly fitted or top-dose-only effect; inactive = no such curve, though single readings can be large or run the other way; further: potency means the concentration at half of the fitted maximal effect; the source files actives as falling curves though it sought activators and does not explain the sign; nearly all actives have a fitted effect of over 65% in size; many hits overshoot -100%
Target sequence (P80244 whole entry, looked up): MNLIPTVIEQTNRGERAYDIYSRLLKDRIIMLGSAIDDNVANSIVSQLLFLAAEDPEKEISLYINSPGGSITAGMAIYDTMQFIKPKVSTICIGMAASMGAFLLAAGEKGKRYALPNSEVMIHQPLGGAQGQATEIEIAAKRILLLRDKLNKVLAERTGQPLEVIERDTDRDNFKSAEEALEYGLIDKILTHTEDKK
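Buffer: 100 mM Tris/HCl pH8, 100 mM KCl, 0.05% low protease BSA, 2.5% glycerol, 0.01% Tween-20. ClpP 10 microg/mL final; 20 min RT; delta FRET normalized to ADEP and DMSO controls.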
gsp ag: qHTS for Agonist of gsp, the Etiologic Mutation Responsible for Fibrous Dysplasia/McCune-Albright Syndrome: qHTS | gsp mutant cells, cAMP HTRF, 30 min; control for the full effect not named in the record | Potency, µM (doses to about 76.9 µM), for inactives: at the highest dose activation (cAMP increase), usual class: activators | 340,000 tested, 0.13% active | AID 624287, 2012; active = well fitted activation curve with a large enough effect; inconclusive = small, poorly fitted or top-dose-only effect, or another doubt; inactive = no such curve, though single readings can be large or run the other way; cell line not stated here;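 further: phosphodiesterase inhibitor Ro 20-1724 added with compounds to block cAMP breakdown; potency means the concentration at half of the fitted maximal effect; nearly all actives have a fitted effect of over 60% in size; about a fifth of the inactives were tested at one dose only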
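Cells stably selected in G418 were plated at 2000/well, grown 16-24 hr, then given compounds in DMSO with the PDE inhibitor […] (300 uM solution added) for 30 min at 37C; cAMP was read by HTRF.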
D2 ag: Beta-Arrestin HTS for Positive Allosteric Modulators of the Human D2 Dopamine Receptor: Agonists | D(2) dopamine receptor (Homo sapiens), P14416 | DiscoveRx PathHunter D2 beta-arrestin, luminescence, 90 min; 100% = 57 uM dopamine signal | activation, % (concentration not given with the values) | 360,000 tested, 0.084% active | AID 624465, 2012; in the data active = activation above about 40%; inconclusive = about 15% to 40%; inactive = below about 15%; further: compound concentration not given in the record; the text of the record calls up to 30% inactive
Target sequence (P14416 whole entry, looked up): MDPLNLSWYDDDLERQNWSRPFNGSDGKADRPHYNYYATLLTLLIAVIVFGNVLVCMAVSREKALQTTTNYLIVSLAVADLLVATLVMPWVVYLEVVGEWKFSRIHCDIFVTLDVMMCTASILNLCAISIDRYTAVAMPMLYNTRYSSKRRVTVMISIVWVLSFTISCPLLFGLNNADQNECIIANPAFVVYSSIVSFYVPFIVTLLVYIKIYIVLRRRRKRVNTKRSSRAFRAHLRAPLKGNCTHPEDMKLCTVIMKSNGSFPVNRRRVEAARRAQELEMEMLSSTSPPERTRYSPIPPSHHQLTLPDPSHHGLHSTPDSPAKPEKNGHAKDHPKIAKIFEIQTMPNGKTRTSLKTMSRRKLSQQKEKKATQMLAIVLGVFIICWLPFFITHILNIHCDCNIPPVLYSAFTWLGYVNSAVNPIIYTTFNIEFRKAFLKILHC
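Agonist mode: compounds alone added to overnight-plated D2 PathHunter cells for 90 min at 37 C, with 57 uM final dopamine (EC100) defining full response. Beta-arrestin recruitment detected by chemiluminescent reagent, read after 1 h at ambient temperature.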
Menin-MLL FL inh: qHTS Assay for Inhibitors Targeting the Menin-MLL Interaction in MLL Related Leukemias: Competition With Fluorescein Labeled MLL-derived Peptide. Fluorescence polarization, fluorescein-MLL peptide displacement from menin. FP activity change, % at 61.4 µM. 290,000 tested, under 10 active. AID 1766, 2009; inconclusive = falling polarisation curve, or a change in total fluorescence; inactive = total fluorescence flat and polarisation flat or rising; no compound was filed as active; the % refers to the polarisation; negative = inhibition;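 further: % of control where 0% means no effect; inhibitors lower the polarisation; unlabelled MLL peptide was the positive control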
gsp antag: qHTS for Antagonists of gsp, the Etiologic Mutation Responsible for Fibrous Dysplasia/McCune-Albright Syndrome: qHTS. gsp-mutant cells, cAMP HTRF, 30 min; control for the full effect not named in the record. Potency, µM (top dose mostly 76.9 µM), for inactives: top-dose activity change, negative = inhibition, hits mostly inhibitors. 340,000 tested, 0.4% active. AID 624288, 2012; active = falling curve of any shape with a large fitted effect; inconclusive = falling curve, mostly with a smaller effect; inactive = flat or rising curve; cell line not stated here;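 further: intracellular cAMP measured with PDE inhibitor Ro 20-1724 present during compound exposure; potency means the concentration at half of the fitted maximal effect; on the % scale 0 is the no-effect control and ±100 the full control effect; nearly all actives have a fitted effect of over 65% in size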
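HTRF cAMP measurement after 30 min RT detection following 30 min, 37C compound treatment alongside […] (added as 300 uM solution) in G418-selected cells seeded at 2000/well and grown 16–24 h.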
Sfp inh: qHTS Assay for Inhibitors of Bacillus subtilis Sfp phosphopantetheinyl transferase (PPTase). Biochemical Sfp PPTase activity, qHTS. Potency, µM, for the others: max response, negative = inhibition, most hits filed as inhibitors. 310,000 tested, 3.5% active; active means well fitted inhibition curve with a large enough effect; inconclusive means small, poorly fitted or top-dose-only effect, or another doubt; inactive means no such curve, though single readings can be large or run the other way;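 further: the enzyme is Sfp with the accession as filed and its product quenches rhodamine fluorescence; potency means the concentration at half of the fitted maximal effect; 0% = enzyme reaction without inhibitor and -100% = no enzyme wells; top concentration of the series not given in the record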
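Fluorescence-quenching assay: 15 nM Sfp-PPTase preincubated 15 min at room temperature with compound, then 5 uM rhodamine-CoA and 12.5 uM BHQ-2-labelled YbbR peptide added. Fluorescence (ex 525/em 598 nm) read at start and after 30 min; difference gives rate.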
PINK1 expr mod: A Quantitative High throughput Screen to Identify Chemical Modulators of PINK1 Expression. PINK1 immunofluorescence, high-content cytometry, 24 h. Potency, µM (titrated, usually from 76.6 µM), inactives show at the top dose activation (PINK1 increase), actives largely listed as activators. 410,000 tested, 0.2% active. AID 624263, 2012; active = well fitted activation curve with a large enough effect; inconclusive = small, poorly fitted or top-dose-only effect; inactive = flat fitted curve, though single readings scatter; cell line not stated here;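 further: potency means the concentration at half of the fitted maximal effect; % of control where 0% means no effect; nearly all actives have a fitted effect of over 65% in size; a mitochondrial uncoupler was the plate control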
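PINK1 protein, normally rapidly degraded, was detected by immunofluorescence after 24 hour compound treatment of a stable cell line. Titration data (5 concentrations) came from laser-scanning cytometry, with CCCP-treated wells as controls.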
Active calls of the source: *; ? = inconclusive; / = no result given; & = joins results of further samples; [ ] = remark or other dose. Rows are unselected; about 5.1% have a hit in one of these screens.

SMILES | ClpP mod | gsp ag | D2 ag | Menin-MLL FL inh | gsp antag | Sfp inh | PINK1 expr mod
O=C(/C=N/O)NCC1CCNCC1 | 0.7% | -13% | 0.2 | -1.0 | 0% | -18% | 1.1%
COc1cc(NC(=O)C(C)C)ccc1NC(=O)c1cc2ccccc2o1 | -4.2% | -23% | 0.7 | 3.0 | -21% | 15% | 2.2%
CCOc1ccccc1NC(=O)Cn1nnc(C(=O)NCCc2ccc(OC)c(OC)c2)c1N | 0.3% | 18% | 3.6 | -2.4 | -4% | 10% | -0.1%
O=C(NC(=S)Nc1cccnc1)c1cccs1 | -8.5% | -11%[15.4 µM] | -7.6 | 1.1 | 6% | 56µM* | -0.1%
COc1c(C)cc(C(=O)C2CCCN(Cc3cnc(N4CCOCC4)s3)C2)cc1C (stereo unspecified) | 3.2% | -9% | -2.5 | 1.7 | -5% | -14% | 3.6%
C/C(=C\C(=O)c1ccncc1)Nc1ccccc1O | -3.0% | 8% | 9.9 | -1.2 | 2% | -17% | -1.8%
O=C(c1ccc(S(=O)(=O)N2CCCC2)cc1)N1CCN(S(=O)(=O)c2cccc(F)c2)CC1 | 0.6% | 7%[15.4 µM] | -0.4 | -1.6 | -3% | 13% | 3.1%
CC(=O)NC(CC(=O)Nc1cccc(S(=O)(=O)N2CCCC2)c1)c1ccccc1 (stereo unspecified) | -0.6% | 6% | 0.5 | / | -2% | 17% | 1.1%
CC1c2cc3c(cc2CCN1CC(=O)Nc1ccc(S(=O)(=O)N2CCCC2)cc1)OCCCO3 (stereo unspecified) | -3.5% | -54%[inhibitor] | 2.1 | 6.8 | -12% | 1% | -1.4%
Cc1cccc(/C=N/N2CCN(c3ccccc3)CC2)c1 | -7.4% | -34%[inhibitor] | -1.8 | -2.2 | 0% | 16% | 23%
Cc1sc2nc3ccc(N4CCCCC4)nn3c(=O)c2c1C | -5.2% | ? | -12 | 6.9 | -5% | -16% | ?
CCN(CC)S(=O)(=O)c1ccc(C(=O)NNC2=NS(=O)(=O)c3ccccc32)cc1 | 0.0% | ? | -1.3 | 10.0 | 9% | 2% | 0.0%
Fc1ccc(CSc2ccc3nnc(-c4cccnc4)n3n2)cc1 | / | 23%[15.4 µM] | 5.1 | -1.5 | 7% | 12% | 3.9%
O=C(COC(=O)CN1C(=O)NC2(CCCCC2)C1=O)Nc1cc(F)ccc1F | -0.6% | 3% | -0.9 | / | -2% | / | -0.2%
CSc1cccc(NC(=S)N2CCC(N(C)C3CCCC3)CC2)c1 | / | -5%[15.4 µM] | 0.2 | 1.4 | 4% | -9% | 0.0%
COc1ccccc1C/C(N)=N/OC(=O)COc1cccc2ccccc12 | -4.2% | -40%[inhibitor] | 2.1 | 3.4 | 3% | 38%[activator] | -3.6%[38.3 µM]
O=C(N/C(=C\c1ccccc1)C(=O)N1CCOCC1)c1ccco1 | -0.3% | 16%[15.4 µM] | -8.3 | 1.4 | -4% | -4% | 1.5%
Cc1nc2ccccc2n1C(=O)N(C)C | / | 5%[15.4 µM] | -13 | 0.6 | 4% | 16% | -0.8%
C/C(CC(=O)Nc1ccc(OCc2ccccc2)cc1)=N\NC(=O)C(=O)Nc1ccc(C)c(Cl)c1 | -1.1% | 13% | -1.1 | -2.6 | 0% | 7% | -1.9%
COc1ccc(C(=O)NNC(=O)CCC(=O)NNC(=O)c2ccc(OC)cc2)cc1 | / | -8%[15.4 µM] | 1.3 | 1.6 | 16% | -3% | 4.0%
CN(C)CC/C=C1/c2cc(F)ccc2CSc2ccc(F)cc21 | 2.1% | -1% | 3.3 | 3.6 | 6% | 20% | 4.1%
CCN1C(=O)[C@H]2[C@@H](c3ccc(C)cc3)N[C@]3(CCCN(Cc4ccc(F)cc4)C3=O)[C@H]2C1=O | -2.8% | -1% | -6.4 | / | / | / | 1.2%
CCNC(=O)C1CCCN(C(=O)c2cccc(C#N)c2)CC1 (stereo unspecified) | -0.3% | / | -4.7 | / | / | / | -0.1%
Cc1cc(NC(=O)CCC(=O)N(CC(=O)NCC2CCCO2)c2ccc(F)c(Cl)c2)no1 (stereo unspecified) | / | 20% | -0.2 | -1.0 | 9% | 23% | 1.9%
Cc1oc(-c2cccc(Cl)c2)nc1CSc1nc2c(c(=O)[nH]1)CCC2 | -0.9% | -27% | -0.9 | 8.7 | 8% | -2% | 3.9%

Next records
SMILES | ClpP mod | gsp ag | D2 ag | Menin-MLL FL inh | gsp antag | Sfp inh | PINK1 expr mod
COc1nnc(-c2ccc(N3CCOCC3)c(NC(=O)c3ccccc3)c2)c2ccccc12 | 1.3% | -29% | -1.8 | 5.7 | -1% | -2% | 0.9%
CC(=O)c1cccc(Nc2nc3ccccc3n3cnnc23)c1 | -2.6% | -36%[15.4 µM] | 13 | 1.5 | -6% | -7% | 2.2%
CN(C(=O)COC(=O)CSc1ccc(C(N)=O)cc1[N+](=O)[O-])C1CCS(=O)(=O)C1 (stereo unspecified) | -2.1% | 2%[15.4 µM] | -6.9 | / | 8% | / | 0.1%
COc1ccc2c(-c3cnc(N4CCOCC4)nc3)c(-c3ccc(S(C)(=O)=O)cc3)sc2c1 | 3.6% | / | -1.5 | / | -19% | / | 0.0%
O=C(Nc1ccc2nc(SCc3ccc(Cl)cc3)sc2c1)c1ccccc1C(=O)N1CCOCC1 | ? | 0% | 2.5 | 3.8 | ? | 5% | 1.2%
O=C(c1ccco1)N1CCN(/C(=N/S(=O)(=O)c2cccs2)c2ccccc2Cl)CC1 | 1.0% | 16% | -1.6 | -1.1 | 1% | 13% | -0.3%
O=c1[nH]c2ccc(S(=O)(=O)NCc3ccccc3)cc2[nH]1 | / | -4% | 3.5 | -1.2 | 11% | 12% | 5.1%
O=C(Nc1ccc(F)cc1F)N1CCCN(CCOc2ccccc2)CC1 | 0.7% | 1% | -9.1 | -0.7 | 3% | 9% | -0.3%
O=C(COc1ccc2ccc(=O)oc2c1)Nc1ccc(CN2CCOCC2)cc1 | 3.6% | 12% | 6.0 | -4.4 | -8% | 20% | -0.1%
Cc1ccc(S(=O)(=O)CC(=O)N2CCN(c3ccccc3F)CC2)cc1 | -3.3% | 3%[15.4 µM] | -4.3 | 0.3 | 3% | 1% | -0.5%
Cc1nc(SCC(=O)N2CCN(c3ccccc3)CC2)c2oc3ccccc3c2n1 | 3.1% | -7% | 4.2 | -1.3 | -21% | 4% | -0.8%
C=CCc1cc(C)ccc1OCCCn1ccnc1 | / | -32%[inhibitor] | 0.7 | -5.4 | -10% | -21% | 1.5%
Cc1ccc(Nc2nc3ccccc3s2)c(C)c1 | -0.1% | -21% | -2.0 | / | 0% | -7% | ?
COc1cccc(N2CC(C(=O)Nc3nnc(SCc4cccnc4)s3)CC2=O)c1 (stereo unspecified) | 13µM* | ? | -1.2 | 3.6 | -4% | -1% | 0.5%
COC(=O)c1cc(=O)cc(C(=O)OC)o1 | -4.1% | 4% | -0.4 | 0.2 | 7% | 13% | -1.8%
CCC(=O)Nc1c(C(=O)Nc2cccc(OC)c2)oc2ccccc12 | -4.3% | -24% | -4.3 | -0.7 | -5% | 19% | -1.4%[38.3 µM]
CC(C)(C)OC(=O)C[C@H]1C/C=C\C[C@H](CC(=O)N[C@H](CO)Cc2ccccc2)C(=O)N[C@H](Cc2ccccc2)COC1=O | 0.2% | / | 1.9 | / | -14% | / | 3.2%
N#CCc1ccc(OC(=O)c2cnccc2C(F)(F)F)cc1 | 1.7% | -10% | 3.6 | 6.2 | 17% | 3% | 0.0%
Cc1cc(C)nc(Nc2ncc(O)n2-c2ccc(Br)cc2)n1 | / | -15%[15.4 µM] | -4.4 | 0.1 | -11% | -1% | -0.8%
CCC(=O)Nc1ccc(C(=O)Nc2cccnc2)cc1 | -1.7% | 17% | 0.1 | 1.2 | 0% | 14% | 2.5%[38.3 µM]
S=c1[nH]nc(-c2ccc(Cl)cc2)n1/N=C/c1cccs1 | / | -5%[15.4 µM] | -1.7 | -1.1 | -12% | -10% | 1.2%
CCOc1c2ccccc2nn1CCOC | ? | -7% | -3.4 | / | 8% | / | 1.2%
COc1ccc([C@H]2N[C@]3(CCCN(Cc4ccc(C(F)(F)F)cc4)C3=O)[C@H]3C(=O)N(Cc4ccccc4)C(=O)[C@@H]23)cc1 | 1.4% | ? | -8.7 | / | / | / | 1.5%
CCN(C(=O)COC(=O)c1cc(-c2cccc3ccccc23)nc2ccccc12)C1CCS(=O)(=O)C1 (stereo unspecified) | ? | -2% | -3.0 | 5.4 | -6% | -3% | 5.4%
CCOc1ccc(C2CC(c3ccccc3C)n3ncnc3N2)cc1 (stereo unspecified) | -0.4% | 0% | 1.0 | 4.2 | -8% | -17% | ?
Cc1nnc(NC(=O)c2ccccc2NC(=O)c2ccccc2)s1 | -0.8% | -4% | 8.5 | 1.4 | -21% | -9% | 3.6%
Cc1nccn1C[C@@H]1CCc2c(c3ccccc3n2C)C1=O | -2.8% | / | 5.1 | 0.7 | -4% | 3%&18% | 0.0%
COc1ccccc1C(=O)Nc1nc2nc(-c3ccccc3)cc(=O)n2[nH]1 | -4.2%&-2.2% | -55%[inhibitor] | -1.6 | 2.6 | -1% | -3% | 0.3%&1.6%
O=C(Cc1cccs1)NC1CCCC1 | / | 1%[15.4 µM] | -4.6 | 2.7 | / | 12% | 3.3%
N/C(=N\OC(=O)c1cccc([N+](=O)[O-])c1)c1ccccn1 | / | ? | ? | -2.9 | -1% | 7% | -2.7%
